B2AR ag – beta2AR agonists driving receptor internalization, primary screen, cell-based, FAP fluorogen, flow cytometry. Beta-2 adrenergic receptor (Homo sapiens), P07550. Am2.2-beta2AR cells; reference of the scale not given here. response, % (concentration not given with the values). actives 0.43% (n = 340,000). AID 504454, 2011;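 active = response above a set limit, near 3 SD of response in nonfluorescent compounds, cut at about 42% in these data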;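 also: stock transfer was 100 nL into about 11 µL; a reference agonist was the positive control; negative values mostly stem from fluorescent compounds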
Target sequence (P07550 whole entry, looked up): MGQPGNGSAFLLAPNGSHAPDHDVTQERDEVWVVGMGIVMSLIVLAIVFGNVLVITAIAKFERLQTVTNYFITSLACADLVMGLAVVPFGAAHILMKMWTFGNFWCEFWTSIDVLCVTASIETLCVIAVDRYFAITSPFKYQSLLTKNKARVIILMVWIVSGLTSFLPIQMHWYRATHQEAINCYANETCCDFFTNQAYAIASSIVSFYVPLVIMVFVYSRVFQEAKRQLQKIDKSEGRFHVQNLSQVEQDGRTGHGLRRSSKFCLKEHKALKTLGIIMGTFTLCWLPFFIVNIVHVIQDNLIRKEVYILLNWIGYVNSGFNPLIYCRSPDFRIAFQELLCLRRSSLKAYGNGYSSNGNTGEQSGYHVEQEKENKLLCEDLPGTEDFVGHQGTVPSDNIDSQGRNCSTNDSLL
Vif TR-FRET – inhibitors of Vif binding to APOBEC3G peptide, primary screen, biochemical, TR-FRET, GST-Vif 1-94, biotin-A3G peptide, dose response retest (AID 1117319); TR-FRET GST-Vif / biotin-A3G peptide binding; higher % means a stronger effect; test concentration not given here; strong numbers were not always called active; inhibition, %, or IC50 in µM where a hit was titrated; actives 0.57% (n = 260,000);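 active = above the screen mean plus three standard deviations and confirmed in dose response; inconclusive = results disagree or hit not tested in dose response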;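 also: Vif residues 1-94 fused to GST binding biotinylated APOBEC3G peptide 110-148; 0% = full assay without inhibitor and 100% = GST in place of GST-Vif; retest series ran down from 100 µM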
ALR inh – inhibitors of human ALR sulfhydryl oxidase, primary screen, biochemical, H2O2 detection, HRP-luminol luminescence, single point; purified ALR, DTT oxidation; inhibition, % (test concentration not listed); actives 3.8% (n = 290,000);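 active = mean and each replicate at 75% or more; inconclusive = only one of the two met; inactive = neither met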;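 also: stock transfer was 7.5 nL into about 7.5 µL; 0% = neutral wells and 100% = wells with inactivated enzyme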
Target sequence (P55789 whole entry, looked up): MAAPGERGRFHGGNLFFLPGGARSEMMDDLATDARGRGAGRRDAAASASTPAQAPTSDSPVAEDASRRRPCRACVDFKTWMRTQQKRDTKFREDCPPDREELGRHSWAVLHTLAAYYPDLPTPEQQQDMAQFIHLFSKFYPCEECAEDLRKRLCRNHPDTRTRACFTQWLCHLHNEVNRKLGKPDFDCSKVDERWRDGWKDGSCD
HNF4A DNA FP – change in binding of human HNF4A to DNA, primary screen, biochemical, fluorescence polarization, FITC-DNA; 1 h; activity change, % at 10 µM; actives 0.3% (n = 360,000); AID 1224865, 2016; in the data active = activity change above about 30%, passing the limit was not always enough;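 also: controls were the assay level and a saturating level of protein; the project sought stronger binding though the title names inhibitors; some compounds called inactive have numbers as strong as hits; positive values seem to mean higher polarization but the record does not say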
Target sequence (P41235 whole entry, looked up): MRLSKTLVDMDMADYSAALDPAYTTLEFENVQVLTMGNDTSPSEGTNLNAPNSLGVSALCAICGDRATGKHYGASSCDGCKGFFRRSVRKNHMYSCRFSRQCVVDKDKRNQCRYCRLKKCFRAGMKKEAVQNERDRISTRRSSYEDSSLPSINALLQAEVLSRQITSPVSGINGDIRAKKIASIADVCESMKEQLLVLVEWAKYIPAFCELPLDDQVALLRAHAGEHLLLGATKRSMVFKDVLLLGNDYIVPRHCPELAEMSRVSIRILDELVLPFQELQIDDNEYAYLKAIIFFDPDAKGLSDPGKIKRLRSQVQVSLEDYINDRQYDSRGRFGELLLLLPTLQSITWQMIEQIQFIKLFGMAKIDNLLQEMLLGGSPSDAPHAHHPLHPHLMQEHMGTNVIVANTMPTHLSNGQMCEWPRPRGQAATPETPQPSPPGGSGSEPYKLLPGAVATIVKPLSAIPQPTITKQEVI
Calb FLC – C. albicans growth inhibition with fluconazole, primary screen, CaCi-2 strain, Alamar Blue fluorescence. C. albicans CaCi-2 (fluconazole-resistant clinical isolate) + fluconazole, 48 h. growth inhibition, % (test concentration not listed). actives 0.57% (n = 300,000);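 active = most replicates above 75%; inconclusive = exactly half above 75%; inactive = most below 75%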;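 also: all wells also contain fluconazole at 8 µg/ml as a sub-toxic cotreatment; 0% = median of DMSO wells and 100% = median of geldanamycin control wells; wells of about 8 µL received 7.5 nL stock; the first replicate is given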
RanGTP-Impb inh – inhibitors of RanGTP-importin-beta interaction, primary screen, biochemical, FRET, CFP-Ran, YFP-importin-beta, homogeneous; Ran GTPase (GTP-bound) - importin-beta complex; cell-free CFP-Ran/YFP-importin-beta FRET ratio; inhibition, % (no concentration beside the values); actives 1.1% (n = 300,000); AID 2216, 2009;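 active = most replicates above 15%; inconclusive = exactly half above 15%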;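 also: 0% = DMSO wells and 100% = Ran loaded with GDP instead of GTP; wells of about 40 µL received 100 nL stock; the first replicate is given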
LANA-H2B inh – blockers of LANA interaction with H2A/H2B – biochemical, FP readout, HTS, primary screen. Protein LANA1 (Human herpesvirus 8 type P (isolate GK18)), Q9QR71. cell-free LANA-H2A/H2B peptide, fluorescence polarization. inhibition, % (no concentration beside the values). actives 0.6% (n = 320,000). AID 2629, 2010; in the data active = inhibition mostly above about 10%, no sharp cut-off; inactive = mostly below about 6.7%;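 also: stock transfer was 7.5 nL into about 10 µL; 0% = median of vehicle wells and 100% = median of positive control wells; one replicate is shown; the record names a cut of 25% in any replicate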
Starred values were filed as active, the others as inactive; ? = inconclusive; nt = not tested or not shown.

SMILES	B2AR ag	Vif TR-FRET	ALR inh	HNF4A DNA FP	Calb FLC	RanGTP-Impb inh	LANA-H2B inh
O=C1CN(C(=O)CSc2nc3ccccc3c(=O)n2CC2CCCO2)c2ccccc2N1 (centres undefined)	5.5	-4.7%	nt	1.0	-5.7	-2.0	-0.5
Cc1ccc(-c2nc3ccccc3nc2NN)cc1	-12.4	14.6%	-1.5	2.8	0.1	-0.2	9.9
Cc1ccc(C2/C(=C(/O)c3ccccc3)C(=O)C(=O)N2CCN2CCOCC2)o1 (centres undefined)	-1.6	?	-4.0	2.3	4.4	2.1	-4.9
COc1ccccc1C(=O)C1CCCN(C(=O)c2ccccc2Cl)C1 (centres undefined)	-10.4	nt	-8.0	2.3	-16.9	-0.9	nt
CCOc1ccc(OCC)c(NC(=O)C(NS(=O)(=O)c2ccc3c(c2)oc(=O)n3C)C(C)C)c1 (centres undefined)	-6.4	?	nt	0.4	nt	nt	2.7
COc1cc(C(=O)OCC(=O)NC2CCCC2)cc(NC(=O)c2ccco2)c1OC	-9.4	6.0%	-6.8	0.3	-5.8	nt	8.3
CCCn1c(=O)c(-c2ccccc2)c(O)c2ccccc21	-4.8	?	10.7	-0.9	?	1.9	1.8
CN(Cc1ccccc1)C(=O)CC(=O)N(C)Cc1ccccc1	-1.6	nt	-2.4	0.2	-1.9	-2.8	7.5
c1ccc(CCCCN2C(Nc3ccccc3)=NC[C@@H]2Cc2ccccc2)cc1	11.1	nt	nt	-0.5	nt	nt	0.9
O=C(Cn1c(=O)sc2ccccc21)Nc1ccc2c(c1)OCCO2	20.7	5.8%	nt	1.2	-11.0	-1.5	0.8
Cc1ccc(Nc2nc(CSc3nnc(-c4cccnc4)n3-c3ccccc3F)cs2)cc1	-7.2	nt	71.6	2.2	10.6	?	4.6
CCN(CC)S(=O)(=O)c1ccc(NC(=O)C(C)N(c2ccccc2)S(C)(=O)=O)cc1 (centres undefined)	4.3	1.6%	-5.0	1.9	2.7	2.9	-3.3
Cc1cc(NC(=O)c2c([N+](=O)[O-])cnn2C)no1	5.8	8.4%	-20.1	1.7	-2.2	-2.6	4.6
Cc1nn(-c2ccccc2)c(N)c1C1(O)C(=O)Nc2ccc([N+](=O)[O-])cc21 (centres undefined)	-7.2	2.2%	-1.4	0.6	-8.9	-0.6	-0.7
CCOC(=O)c1ccc(COC(=O)CCc2nc(-c3ccccc3)c(-c3ccccc3)o2)cc1	13.4	-5.9%	nt	-1.1	26.6	1.9	-6.9
Cn1c(=O)c2c(nc(CN3CCN(c4ccccc4)CC3)n2Cc2c(F)cccc2Cl)n(C)c1=O	2.0	11.2%	97.3*	-1.2	-4.5	?	0.4
Cc1ccc(-n2nnnc2SCC(=O)N2CCCCC2)cc1	-7.8	-5.9%	-19.4	1.1	-5.3	1.0	-0.1
O=C(NCc1ccccc1)[C@@H]1CSC2c3ccccc3C(=O)N21 (some centres undefined)	-3.5	4.8%	0.4	-0.4	-4.8	-1.4	5.8
COc1ccc(C(=O)CC(=O)c2ccc(OC)cc2)cc1	-0.2	nt	-2.4	-0.6	0.7	4.5	1.4
CCCCOc1ccc(NC(=O)CN2CCN(Cc3ccccc3)CC2)cc1	-1.4	nt	-10.2	0.0	-3.1	-2.1	0.0
CCOC(=O)C1=C(CC)Nc2ccccc2N=C1NC(=O)c1cccc(S(=O)(=O)N2CCCC2)c1	-10.1	-1.5%	-2.6	-1.8	-0.6	2.0	0.1
CCn1c2ccccc2c2cc(NC(=O)C(=O)NCC3CCCO3)ccc21 (centres undefined)	16.9	11.4%	-10.9	-2.7	-4.1	1.1	-6.2
C=CCn1c(SCC(=O)N(C)C)nc2cc(C(=O)O)ccc2c1=O	-3.3	23.3%	nt	-2.7	4.7	0.5	-5.8
Cc1c(C(=O)Nc2cccc(Cl)c2)c2ccccn2c1CCc1ccncc1	0.6	?	nt	-4.3	11.3	2.8	nt
CCC(=O)Nc1cc2nn(-c3ccccc3)nc2cc1Cl	-4.2	26.4%	6.4	-0.6	0.4	0.7	-1.5
O=C(CCNC(=O)c1ccc(Br)cc1)Nc1ccccc1N1CCCCC1	-2.3	-7.7%	-22.6	0.8	4.4	-2.6	-0.8
CC(C)Oc1ccc(/C(O)=C2/C(=O)C(=O)N(Cc3cccnc3)C2c2ccco2)cc1 (centres undefined)	-6.9	0.4%	1.9	-2.6	-7.0	2.4	-2.8
CC(C)(C)N1CC(C(=O)Nc2cccc(Cl)c2Cl)CC1=O (centres undefined)	16.0	nt	nt	-0.9	-1.5	1.7	0.0
C=CCn1c(NCc2ccc(OC)cc2O)nc2ccccc21	0.9	-5.5%	54.9	-3.7	0.5	-3.3	-13.9
O=C(COC(=O)COc1ccccc1F)Nc1cccc(S(=O)(=O)N2CCCCC2)c1	2.5	nt	-10.2	1.8	nt	nt	-1.3
COc1ccc(CSCCN)cc1Cl	8.4	5.6%	56.9	-0.3	-8.0	-2.8	-5.0
COc1ccc(S(=O)(=O)N(C)CC(=O)N2CCC(C)CC2)cc1Cl	-3.5	4.8%	-43.0	-0.5	-4.6	-1.3	-1.4
COc1ccc(OC)c(C(=O)CSc2nnc(-c3cccs3)o2)c1	-14.3	-11.6%	-1.9	1.2	2.8	?	-2.9
COCCCn1c(CCC(=O)O)ccc1-c1cccs1	-5.9	8.9%	98.2*	-1.1	-9.0	54.6*	-1.6
O=C(CSc1nc(CCC2CCCC2)nc2ccccc12)NCc1ccc2c(c1)OCO2	-10.4	nt	99.9*	0.5	-6.8	-4.7	14.8*
O[C@@H]1CN(Cc2ccc(-n3cccn3)cc2)CC[C@H]1N1CCN(c2ccccc2F)CC1	-13.0	nt	nt	2.7	-3.0	2.9	-4.3
O=C(COC(=O)/C=C/c1ccc(S(=O)(=O)N2CCOCC2)cc1)Nc1ccccc1F	-2.9	1.6%	21.2	-0.8	nt	nt	0.5
CC(C)COC(=O)NCCCOC(=O)Nc1ccccc1	5.9	0.2%	-5.2	-0.1	2.7	-1.3	6.5
CC1(C)CC(=O)C2=C(C1)NC(=O)NC2c1ccc(Cl)cc1 (centres undefined)	-1.1	nt	-7.6	-1.9	-3.3	0.8	6.3
COc1cc(/C=N\NC(=O)c2ccc(Cl)cc2)ccc1Oc1ccc([N+](=O)[O-])cn1	4.3	-1.3%	-11.2	8.8	11.5	-0.3	0.2

Three compounds drawn at random from the list so far:
SMILES	B2AR ag	Vif TR-FRET	ALR inh	HNF4A DNA FP	Calb FLC	RanGTP-Impb inh	LANA-H2B inh
CC1(C)CC(=O)C2=C(C1)NC(=O)NC2c1ccc(Cl)cc1 (centres undefined)	-1.1	nt	-7.6	-1.9	-3.3	0.8	6.3
Cc1c(C(=O)Nc2cccc(Cl)c2)c2ccccn2c1CCc1ccncc1	0.6	?	nt	-4.3	11.3	2.8	nt
CC(C)Oc1ccc(/C(O)=C2/C(=O)C(=O)N(Cc3cccnc3)C2c2ccco2)cc1 (centres undefined)	-6.9	0.4%	1.9	-2.6	-7.0	2.4	-2.8

More compounds follow:
SMILES	B2AR ag	Vif TR-FRET	ALR inh	HNF4A DNA FP	Calb FLC	RanGTP-Impb inh	LANA-H2B inh
CCOC(=O)Cn1nnnc1CN(Cc1cccs1)Cc1cc2cc(C)ccc2[nH]c1=O	17.1	-3.4%	-22.9	-10.3	10.4	?	2.6
Cc1ccc(S(=O)(=O)N(C)CC(=O)Nc2ccc3c(c2)OCO3)cc1	-5.3	nt	-18.0	1.2	-15.7	-2.9	0.8
CCOC(=O)Nc1ccc2c(c1)N(C(=O)N(CC)CC)c1ccccc1CC2	-3.7	-8.1%	1.0	-3.0	6.3	0.8	-3.0
O=C(CSc1ncn(-c2ccccc2)n1)Nc1nc(-c2ccccc2)cs1	-9.7	8.6%	-3.4	1.9	5.6	2.7	-8.4
Cc1ccc(C(=O)Nc2cccc(NC(=O)c3ccc(C)cc3)n2)cc1	-10.6	nt	-6.3	3.8	36.8	2.0	2.0
Cc1ccccc1C(=O)N=c1ccn(-c2nc3ccccc3nc2NS(=O)(=O)c2ccc(F)cc2)cc1	10.3	nt	-1.2	13.3	-4.6	-15.7	-1.7
C[C@@H](C(O)c1ccccc1)N(C)C(=O)CCc1ccccc1 (some centres undefined)	-9.7	nt	-0.8	-2.2	-3.3	3.2	0.5
Cc1ccc(NC(=O)CSc2ccccc2)cc1S(=O)(=O)N1CCCCC1	4.0	nt	1.7	0.3	nt	nt	5.9
Cc1ccc(S(=O)(=O)/N=C(\Sc2ccccc2)c2ccccc2)cc1	14.5	5.6%	98.4*	-0.1	9.4	4.1	-1.4
O=C(Nc1nc(COc2ccccc2)cs1)C12CC3CC(CC(C3)C1)C2	14.2	-2.6%	6.3	1.2	-41.4	-3.1	5.0
COc1ccccc1NC(=O)CCN1CC(C)OC(C)C1 (centres undefined)	-2.2	?	-1.5	0.5	7.4	?	0.7
CCOC(=O)C1(CCCc2ccccc2)CCN(C(=O)COC)CC1	-2.7	-5.5%	-2.1	-2.0	2.0	-0.6	-4.8
COc1ccc(-n2cnnc2SCc2csc(-c3ccccc3)n2)cc1	-9.1	-11.4%	17.9	1.2	-7.9	-2.7	0.7
Cc1ccc(N=Cc2ccccc2O)cc1Cl	-2.1	-0.3%	nt	-5.2	nt	nt	nt
C=CCCN([C@@H](C)C(=O)OC)S(=O)(=O)c1ccccc1Br	6.8	nt	2.3	-3.4	-5.9	-1.9	7.3
O=c1[nH]c(/C(Cl)=C/c2cccc(F)c2)nc2cc(C(F)(F)F)ccc12	-0.9	12.6%	-2.8	2.0	9.2	-2.8	-3.4
Clc1ccccc1CNc1nc2ccccc2n2cnnc12	-16.9	-11.1%	-4.5	2.0	7.5	3.3	1.1
CN1CCC(Oc2ccc(Sc3ccccc3)cc2)CC1	3.4	28.4%	0.3	-2.3	34.2	-0.6	0.6
CN1CCC(OC(=O)c2ccc(Br)cc2)CC1	-0.3	-0.9%	-1.0	0.2	-21.4	0.5	3.2
O=C(Cc1ccccc1)NNC1CC(=O)N(c2ccc(Br)cc2)C1=O (centres undefined)	10.1	nt	1.9	1.5	2.7	8.9	2.3
CC(C)NC(=O)CN1C(=O)c2ccccc2S1(=O)=O	5.9	0.8%	-0.4	2.3	-1.5	-5.1	1.3
CCCCCCCc1nc2sc3c(c2c(=O)n1N)CC(C)(C)OC3	-0.1	-10.6%	-7.2	1.7	-2.0	5.5	-4.2
O=C(NCc1ccccc1C(F)(F)F)C1CCC(=O)N(CCCc2ccccc2)C1 (centres undefined)	-4.2	nt	-11.8	1.0	-8.8	0.7	1.4
CCc1ccccc1OCCCOc1ccc(OC)cc1	6.9	31.0%	-3.3	1.3	3.6	-0.1	0.1
COc1ccc(-c2[nH]ncc2/C=N\NC(=O)c2cccs2)cc1OC	8.4	nt	-11.2	-3.8	-8.0	nt	3.2
CCOC(=O)c1c(NC(=O)Cn2cnc3sc(C)c(-c4ccccc4)c3c2=O)sc(C)c1C	-72.2	-8.6%	-8.4	6.3	-12.3	9.8	1.8
Cn1nc(-c2ccc(Cl)cc2)cc1NC(=O)Nc1ccccc1	-0.8	nt	-5.0	0.8	-9.8	2.1	4.3
Cc1ccc2cc(NC(=O)c3ccccc3)ccc2n1	-16.6	3.1%	-15.6	2.5	-1.8	-8.1	-2.1
Cc1ccc(/C(O)=C2\C(=O)C(=O)N(C)C2c2ccc([N+](=O)[O-])cc2)cc1 (centres undefined)	-3.0	-9.4%	10.7	2.3	-2.4	4.1	3.2

Some values from the results shown:
RanGTP-Impb inh, `O=C(NCc1ccccc1C(F)(F)F)C1CCC(=O)N(CCCc2ccccc2)C1` (centres undefined) is entered as 0.7
ALR inh, `CCOC(=O)c1c(NC(=O)Cn2cnc3sc(C)c(-c4ccccc4)c3c2=O)sc(C)c1C` is entered as -8.4
